# Arbovirus anti: antivirals against arbovirus infection, primary screen, cell-based, full library, 10K replicate subset; arbovirus infection cell-based antiviral screen; inhibition, % at 10 µM; actives 0.37% (n = 200,000); AID 1251, 2008;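 active means inhibition from about 30%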;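 further: bluetongue infection of BSR cells; cell survival read as ATP light after 72 h; 0% = infected wells without compound and 100% = uninfected wells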
# RecA intein inh: Mtb RecA intein splicing inhibitors, primary screen, biochemical, fluorescence, HTS; Protein RecA (Mycobacterium tuberculosis (strain ATCC 25618 / H37Rv)), P9WHJ3; cell-free RecA intein splicing; inhibition, %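 (about 9 µM by stock and volumes)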; actives 0.75% (n = 290,000); in the data active means inhibition above about 30%; inconclusive means no clear call, values can overlap the other calls;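 further: 0% = vehicle wells and 100% = reference inhibitor control wells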
# Target sequence (P9WHJ3 whole entry, looked up): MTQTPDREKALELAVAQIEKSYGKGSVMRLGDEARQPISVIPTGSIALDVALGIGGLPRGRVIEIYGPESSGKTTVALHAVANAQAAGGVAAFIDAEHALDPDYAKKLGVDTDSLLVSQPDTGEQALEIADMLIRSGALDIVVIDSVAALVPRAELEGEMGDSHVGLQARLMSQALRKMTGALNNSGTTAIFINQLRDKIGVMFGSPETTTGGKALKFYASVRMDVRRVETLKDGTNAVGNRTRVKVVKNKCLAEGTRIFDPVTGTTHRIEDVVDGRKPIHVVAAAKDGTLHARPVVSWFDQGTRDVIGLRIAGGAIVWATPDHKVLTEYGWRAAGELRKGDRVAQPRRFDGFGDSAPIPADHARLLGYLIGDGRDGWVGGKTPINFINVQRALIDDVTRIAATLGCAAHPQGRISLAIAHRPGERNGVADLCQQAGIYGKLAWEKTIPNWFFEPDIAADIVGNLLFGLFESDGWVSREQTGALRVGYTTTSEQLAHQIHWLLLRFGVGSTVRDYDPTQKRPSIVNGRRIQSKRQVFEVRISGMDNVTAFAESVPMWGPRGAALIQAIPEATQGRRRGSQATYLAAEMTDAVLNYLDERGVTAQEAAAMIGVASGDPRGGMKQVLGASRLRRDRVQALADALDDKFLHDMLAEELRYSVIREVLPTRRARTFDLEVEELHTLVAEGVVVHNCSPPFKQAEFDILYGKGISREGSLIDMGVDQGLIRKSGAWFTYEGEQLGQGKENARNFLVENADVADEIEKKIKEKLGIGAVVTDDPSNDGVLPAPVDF
# YopH PTP inh: YopH tyrosine phosphatase inhibitors, primary screen, biochemical, fluorescence Ex485/Em525; inhibition, %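 (about 10 µM by stock and volumes)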; YopH tyrosine phosphatase [Yersinia enterocolitica]; actives 0.16% (n = 140,000); AID 898, 2007;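 active means inhibition of 50% or more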;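 further: controls were vehicle for no effect and minimum signal wells for full effect; inactives centre near -20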
# Mtb betalactam: beta-lactam sensitization of Mtb H37Rv, H37Rv; M. tuberculosis H37Rv growth with meropenem, percent inhibition; hits of this screen are not shown here; inhibition, % at 25 µM; actives 0.27% (n = 330,000);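 active means about 74% or more and at least 40 points above the plate without the antibiotic, then above 30% in a dose series; inconclusive means first-round hits that could not be retested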;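 further: growth measured after seven days incubation then overnight dye step; 0% = bacteria only wells and 100% = bacteria with antibiotic; twin plates without the antibiotic show which effects depend on it; some results filed as inactive read as strong as hits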
# Mtb growth: M. tuberculosis H37Rv growth inhibitors, H37Rv strain (AID 1626) | M. tuberculosis H37Rv growth inhibition; higher % means a stronger effect | inhibition, % at 10 µM, or IC50 in µM where a hit was titrated | actives 0.95% (n = 220,000);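 active means confirmed in a dose series; inconclusive means inhibition above 80% but not taken into the dose series; inactive means below 80% or under 30% at every dose of the series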;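 further: bacteria incubated seven days before Alamar blue readout; 0% = bacteria only wells and 100% = bacteria with antibiotic wells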
# * hit, by the source's call; ? = inconclusive; . = no result given. A portion of the library; rates above refer to the full screens.
SMILES,Arbovirus anti,RecA intein inh,YopH PTP inh,Mtb betalactam,Mtb growth
O=C(Nc1ccc(C(=O)N2CCCCC2)cc1)C1=CSCCO1,.,-5.9,.,5,.
CCOC(=O)c1ccc(Nc2cc3ccccc3c(=O)[nH]2)cc1,.,62*,.,43,13µM*
Cc1nnc(NC(=O)C2CCCN(S(=O)(=O)c3ccccc3C(F)(F)F)C2)s1 (stereo not given),10,-0.5,-11,-3,1%
Cc1nn(CC(=O)Nc2ccc(Cl)cn2)c(C)c1Br,-2,2.7,-21,0,-4%
CSc1ccc(/C=N/NC(=O)c2cccc(Cl)c2)cc1,-14,-1.8,-26,17,-4%
O=C(N[C@@H](c1ccccc1)[C@H](O)c1ccccc1)[C@@H]1CCCN1C(=O)OCc1ccccc1,.,-1.3,.,-5,-11%
COC(CN(C)C(=O)c1cn(C)c2ccc(S(=O)(=O)N(C)C3CCCCC3)cc2c1=O)OC,.,-3.1,.,2,.
CCC(C)Sc1nc2c(cnn2-c2ccc(F)cc2)c(=O)[nH]1 (stereo not given),.,0.2,.,0,.
CC(C)C(=O)NC(=S)N1CCc2ccccc21,3,-2.1,-41,7,1%
CCOc1ccc(-c2cc(C(=O)N/N=C(\C)c3cccnc3)c3ccccc3n2)cc1,.,-0.6,.,5,.
CCc1nnc(NC(=O)CSc2nnc(COc3ccc(C)cc3)n2-c2ccccc2)s1,3,1.8,-28,-5,-12%
CC(C)(C)NC(=O)C(=O)NCc1ccncc1,6,0.3,-28,-1,-5%
O=C(Nc1ccc(OCC(F)(F)C(F)F)c(C(F)(F)F)c1)c1ccccc1O,-33,6.0,9,26,-2%
CN(C(=O)COC(=O)c1cc(S(=O)(=O)N2CCOCC2)ccc1Cl)C1CCS(=O)(=O)C1 (stereo not given),.,-3.9,.,2,.
Cc1cc(Cl)ccc1NC(=S)NCc1ccc(S(N)(=O)=O)cc1,4,1.6,.,0,2%
c1ccc(Cn2c(NCc3ccncc3)nc3ccccc32)cc1,-2,-1.5,.,-1,15%
c1ccc(N/N=C(\Cc2ncc[nH]2)c2ccccc2)cc1,-28,1.2,.,10,-6%
O=c1[nH]c(C2CCCN(S(=O)(=O)c3cccc(F)c3)C2)nc2c1nnn2Cc1ccccc1 (stereo not given),.,2.5,.,-6,.
CCNc1nc(Oc2ccc(C(=O)OC)cc2)nc(SC)n1,-2,.,-29,8,10%
O=c1c2[nH]c3cccc(Cl)c3c2ncn1Cc1ccco1,.,0.5,.,4,-4%

# By substructure, the compounds so far containing fluorine
SMILES,Arbovirus anti,RecA intein inh,YopH PTP inh,Mtb betalactam,Mtb growth
Cc1nnc(NC(=O)C2CCCN(S(=O)(=O)c3ccccc3C(F)(F)F)C2)s1 (stereo not given),10,-0.5,-11,-3,1%
CCC(C)Sc1nc2c(cnn2-c2ccc(F)cc2)c(=O)[nH]1 (stereo not given),.,0.2,.,0,.
O=C(Nc1ccc(OCC(F)(F)C(F)F)c(C(F)(F)F)c1)c1ccccc1O,-33,6.0,9,26,-2%
O=c1[nH]c(C2CCCN(S(=O)(=O)c3cccc(F)c3)C2)nc2c1nnn2Cc1ccccc1 (stereo not given),.,2.5,.,-6,.

# Other records
SMILES,Arbovirus anti,RecA intein inh,YopH PTP inh,Mtb betalactam,Mtb growth
COc1ccc(/C=C/C(=O)NCc2ccc3c(c2)OCO3)cc1OC,.,-1.1,.,-8,.
Nc1nonc1C(=O)NCCNCc1cc(Br)ccc1OCc1ccc(F)cc1,5,5.3,-26,?,2%
COc1ccccc1C(CC(N)=O)c1ccco1 (stereo not given),-3,-2.1,24,-14,-5%
CCCSc1nc(N)cc(=O)[nH]1,-4,-1.1,-40,-6,-4%
Cc1ccc(C(C(=O)NCc2ccco2)N(Cc2ccco2)C(=O)CNC(=O)c2ccco2)cc1 (stereo not given),-3,-2.9,-50,3,-7%
CC(NC(=O)CN(c1ccc(Br)cc1)S(C)(=O)=O)c1ccccc1 (stereo not given),.,2.3,.,-3,.
Cc1ccc(C)n1-c1ccc(N2CCOCC2)nc1,-4,2.2,1,10,12%
CCOC(=O)c1c(C)[nH]c(C)c1C(=O)COC(=O)c1cc2ccccc2cc1O,11,8.0,-5,-2,-1%
Cc1ccc(SCCC(=O)Nc2cccc(N(C)S(C)(=O)=O)c2)cc1,-1,1.1,-29,4,1%
Cc1ccc(C)c(NC(=S)Nc2ncccc2C)c1,7,8.7,.,54,13%
CCn1c2ccccc2c2cc(N=C3SC(CC(=O)Nc4ccccc4OC)C(=O)N3CCOC)ccc21 (stereo not given),-5,-2.9,-16,6,7%
CCOc1ccc(CNC(=O)C2CCN(S(=O)(=O)N3CCCC3)CC2)cc1OC,6,0.6,-37,4,-1%
CCn1c(SCC(=O)N/N=C/c2ccncc2)nc2ccccc21,.,0.5,.,-9,1%
CC(NC(=S)Nc1c(Cl)cccc1OC(F)F)C(C)(C)C (stereo not given),11,1.4,-47,-4,1%
C=CCn1c(SCC(=O)Nc2ccccc2C)nc(O)cc1=O,.,1.7,.,6,.
N#Cc1c(N2CCOCC2)nsc1-c1ccc(C(F)(F)F)cc1,.,.,.,6,-9%
C=CCNc1nc(Cl)nc(NCc2ccco2)n1,.,-0.6,.,-9,.
CCOc1ccc(-n2c(=O)c3sccc3n(CC(=O)Nc3cccc(OC)c3)c2=O)cc1,-14,0.3,.,-2,-2%
COc1cccc(C(=O)OCCNC(=O)c2cccnc2)c1,.,1.0,.,2,.
Cc1nonc1CC(=O)N1CCc2c([nH]c3ccccc23)C1c1ccccc1F (stereo not given),3,0.5,.,5,-1%
O=C(Nc1sc2c(c1C(=O)NCc1cccnc1)CCCC2)c1ccco1,-6,-5.4,-12,4,-1%
CCc1ccc(CNc2ccc(O)cc2)cc1,-3,24,0,-3,5%
Cc1ccc(C)c(N2CCN(S(=O)(=O)c3ccc4[nH]c(=O)ccc4c3)CC2)c1,.,1.7,.,2,.
CCC(=O)NCCCNc1nc2c(C)cccc2cc1C#N,-1,.,.,-11,1%
C/C(=N/NC(=O)C(C)n1nc(C)c([N+](=O)[O-])c1C)c1ccc(OCC(N)=O)cc1 (stereo not given),.,1.4,.,-14,-2%
O=C(NCCc1ccc(Cl)cc1)C1CCN(S(=O)(=O)N2CCCCC2)CC1,1,-2.4,-49,0,6%
O=C(COc1ccc(Br)cc1)N1CCOCC1,6,1.4,-32,-11,-1%
O=C1OC(c2ccccc2)C2(CCCC2)C(=O)C12CCCC2 (stereo not given),5,1.2,-30,7,-2%
Cc1ccc2c(c1)C1CN(C)CCC1N2C(=O)Cc1cccs1 (stereo not given),3,3.3,-13,-3,-8%
O=C(CN(C(=O)CNC(=O)c1ccco1)c1ccc2c(c1)OCCO2)NC1CCCC1,3,0.5,.,-10,-6%

# Fetched by structure from the list above, 2 records:
SMILES,Arbovirus anti,RecA intein inh,YopH PTP inh,Mtb betalactam,Mtb growth
Cc1nn(CC(=O)Nc2ccc(Cl)cn2)c(C)c1Br,-2,2.7,-21,0,-4%
O=C(COc1ccc(Br)cc1)N1CCOCC1,6,1.4,-32,-11,-1%

# (list continues)
SMILES,Arbovirus anti,RecA intein inh,YopH PTP inh,Mtb betalactam,Mtb growth
Cc1ccn2cc(-c3cccc(NC(=O)c4ccccc4)c3)nc2c1,-17,-1.6,-9,16,-3%
Cc1cccc(C(=O)NC2CCN(CC(=O)NCc3ccccc3F)CC2)c1,.,-1.6,.,-5,.
COc1cc2c(cc1OC)C1=CC(=O)C(=O)N1C(C)(C)C2,-1,-2.0,.,-15,0%
COc1ccc(NC2=C(C(C)=O)C(c3ccccc3)C(C(C)=O)C(C)(O)C2)cc1 (stereo not given),.,-2.6,.,94,?
Cn1c(=N)n(CC(=O)c2ccc(Br)s2)c2ccccc21,-4,-1.2,-20,-1,.
CCOc1ccc(-n2ccnc2SCC(=O)Nc2nnc(CC)s2)cc1,-6,1.0,-56,29,-4%
COc1ccc(C(=O)CSc2nccn2C)c(OC)c1,.,1.4,.,-5,.
Cc1nc2sccn2c(=O)c1S(=O)(=O)NCCc1ccccc1,.,-3.4,.,2,.
O=C1OCCC1Sc1nnc(-c2ccc(F)cc2)n1Cc1ccccc1 (stereo not given),-3,3.0,-22,0,-14%
O=C(NCC1CCCO1)/C(=C/c1ccccc1F)NC(=O)c1ccccc1 (stereo not given),.,-3.6,.,6,.
O=C(NCC1CCCO1)c1ccc(C(=O)NCC2CCCO2)cc1 (stereo not given),10,-4.9,-27,2,-8%
O=C1C2C(C(=O)N1/N=C/c1ccco1)C1C=CC2C12CC2 (stereo not given),0,-1.1,-23,3,-2%
CCOc1ccc(OCCC(=O)N(CCCOC)c2c(N)n(Cc3ccccc3)c(=O)[nH]c2=O)cc1,.,-2.5,.,-4,.
CCOC(=O)CNC(=O)CSc1nnc(-c2ccncc2)n1-c1ccc(Cl)cc1,3,-1.7,-14,-4,-5%
CCN(CC)S(=O)(=O)c1ccc(Oc2ccccc2)c(N)c1,-2,-1.4,.,68,4%
O=C(c1cccc2c1-c1ccccc1C2)N1CCCCC1,.,10,.,-2,-10%
N=c1c(C(=O)NC2CCCCC2)cc2c(=O)n3ccccc3nc2n1Cc1ccc(F)cc1,.,-173,.,97,.
Cc1ccccc1CC(=O)Nc1sc(C(C)C)cc1C(=O)N1CCOCC1,.,0.4,.,0,.
COc1ccc(-c2cc(C(=O)N3CCN(c4ccccn4)CC3)c3ccccc3n2)cc1,-9,7.4,-29,86,10%
CCOc1ccc(/C=N/NC(=O)c2ccc(Cn3cc(Br)cn3)o2)cc1,-11,0.7,-5,8,-1%

# A section of the results above, as a working copy:
SMILES,Arbovirus anti,RecA intein inh,YopH PTP inh,Mtb betalactam,Mtb growth
Cc1ccccc1CC(=O)Nc1sc(C(C)C)cc1C(=O)N1CCOCC1,.,0.4,.,0,.
COc1ccc(-c2cc(C(=O)N3CCN(c4ccccn4)CC3)c3ccccc3n2)cc1,-9,7.4,-29,86,10%
CCOc1ccc(/C=N/NC(=O)c2ccc(Cn3cc(Br)cn3)o2)cc1,-11,0.7,-5,8,-1%

# The list goes on:
SMILES,Arbovirus anti,RecA intein inh,YopH PTP inh,Mtb betalactam,Mtb growth
CCOc1ccc2nc(SCC(=O)c3ccc(C)s3)sc2c1,-4,0.8,-6,38,-4%
Cc1cc(N)n2ncc(-c3ccc(F)cc3)c2n1,2,0.1,-20,74,38%
Cc1csc2nc(SCC(=O)Nc3ccccc3F)[nH]c(=O)c12,.,-0.6,.,-2,.
O=C(c1ccc(Cl)c(S(=O)(=O)N2CCCCCC2)c1)N1CCN(CCO)CC1,11,-3.0,-17,-4,1%
O=c1[nH]c2ccccc2nc1Cc1ccc(Cl)cc1,.,0.8,.,-4,.
COc1cccc2c1cc1c(=O)n(CC(=O)NCCCc3ccccc3)nc(C)n12,.,-1.9,.,0,.
O=C1NN(c2ccccc2)C(=O)/C1=C/c1coc2ccccc2c1=O,-33,-11,8,4,0%
COc1ccc(CN2CCN(C(=O)c3ccc4nc(N5CCOCC5)sc4c3)CC2)c(OC)c1OC,-1,.,.,5,8%
CN(CCOc1ccccc1)CC(O)COc1ccccc1 (stereo not given),.,0.8,.,-6,.
Cc1cccc(NC(=O)CN2CCCN(S(=O)(=O)c3ccc(Br)s3)CC2)c1,-5,7.5,-31,5,-8%
CC(=O)C1=C(c2ccccc2)NC(=O)NC1c1ccc(O)c(Cl)c1 (stereo not given),.,0.9,.,-2,.
Cc1ccccc1NS(=O)(=O)c1cc(C(=O)NCCC2=CCCCC2)ccc1C,-12,7.6,-35,9,-6%
CCc1nnc(NC2=NCCC2)s1,3,.,-29,-8,-9%
Cc1ccc(C(=O)Nc2ccccc2C(=O)N2CC3(C)CC2CC(C)(C)C3)cc1 (stereo not given),-12,6.4,11,3,-1%
CCOC(=O)C(C(=O)Nc1ccc(C)cc1)C1CCCCC1 (stereo not given),-7,7.3,-3,-4,1%
CCC1(CC)C(=O)N(C)C(=O)NC1=NCc1ccccc1,-3,-3.0,-3,-1,-1%
COc1cccc(NC(=O)COc2ccc(N3CC(C(=O)NCC(C)C)CC3=O)cc2)c1 (stereo not given),11,-1.4,-6,8,-1%
N=c1c(C(=O)NCCN2CCOCC2)cc2c(=O)n3ccccc3nc2n1CCCN1CCOCC1,.,-137,.,6,.
COc1cnc(SCc2c(Cl)cccc2Cl)nc1Cl,5,1.5,-3,?,17%
Nc1[nH]ncc1-c1ccc(F)cc1,7,4.8,.,89,?
Cc1c(C(=O)N/N=C/c2ccccc2)sc(=S)n1C,7,1.0,-1,-5,-15%
COc1ccc(N/C(=C(/C(Cl)=C(Cl)Cl)[N+](=O)[O-])n2nnc3ccccc32)cc1OC,0,-177,-17,42,21%
C=CCOc1c(Br)cc(/C=C2\SC(=Nc3ccccc3)NC2=O)cc1OC,.,0.8,.,0,.
S=C(NCc1ccco1)N1CCN(c2ccccn2)CC1,0,.,.,5,8%
